# Compound activity deposited in PubChem by Southern Research Institute.
# Mtb growth: Mycobacterium tuberculosis H37Rv growth inhibition, cell based, confirmatory dose response (AID 1949). most inactive calls were filed without a number and no value below 0 was filed. inhibition, % at 10 µg/mL, or IC50 in µg/mL where a hit was titrated. 1.6% of 100,000 active;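 active = confirmed in a dose series; inconclusive = about 50% or more but not retested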;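 note: bacteria grown 7 days with compound before Alamar blue readout; 0% = untreated bacteria and 100% = reference antibiotic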
# The depositor's hits bear a star; i = inactive; u = inconclusive. These rows are one share of the data; rates above refer to the full screens.
SMILES,Mtb growth
COc1ccc(OC(=O)c2ccc(OC)c(I)c2)cc1,4%
CC(=O)Cn1nc([N+](=O)[O-])nc1Sc1ccc(C)cc1,4%
CCOC(=O)c1cc(CC)sc1NC(=O)c1cccc(OC(C)=O)c1,i
CCN1CCN(CCOc2ccc3c(c2)CCC3)CC1,i
COc1ccc(Cl)cc1C(=O)Nc1cc(C(F)(F)F)ccc1N1CCOCC1,i
CCOC(=O)c1c(NC(=O)c2ccco2)sc(C(=O)OC(C)C)c1C,i
OC(COc1ccccc1F)CN1CCN(c2ccccc2)CC1 (stereo not drawn),i
CC(C)Oc1ccc(C(CC(=O)N2CCCCC2)c2ccccc2)cc1 (stereo not drawn),i
CS(=O)(=O)N(CC(=O)NCc1cccnc1)c1cccc([N+](=O)[O-])c1,2%
COc1ccc(-c2nc(N)n(C(=O)c3ccccc3)n2)cc1,i
CNC(=O)CN(c1cc(C(F)(F)F)ccc1Cl)S(C)(=O)=O,i
Cn1nc(-c2ccc(C(=O)Nc3cccnc3)cc2)c2ccccc2c1=O,i
COc1ccc(N2CCN(C(=O)c3ccccc3Cl)CC2)c([N+](=O)[O-])c1,4%
CCCn1c(CCc2ccccc2)nnc1SCC(=O)Nc1cc(C)ccc1C,i
CN1CCN(S(=O)(=O)c2ccc(Br)s2)CC1,i
CCOC(=O)c1c(-c2ccc(Cl)cc2)csc1NC(=O)COc1ccc(OC)cc1,i
CCOCCc1nnc(NC(=O)C2CCCO2)s1 (stereo not drawn),i
O=C(NCc1ccco1)C1(c2ccc(Cl)cc2)CCCC1,i
CC(NC(=O)Cn1c(C(F)(F)F)nc2ccccc21)c1ccccc1 (stereo not drawn),i
O=c1[nH]c(-c2ccc(Br)cc2)nc2ccccc12,4%
COc1ccc(OC)c(NC(=S)NCC(C)C)c1,3%
CCC(Oc1ccccc1)C(=O)Nc1nc2ccccc2[nH]1 (stereo not drawn),u
O=C(COc1cc(Cl)c(Cl)cc1Cl)Nc1ccc(F)c(Cl)c1,3%
CCOC(=O)c1c(C)cc(C)nc1SCC(=O)Nc1ccccc1,i
O=S(=O)(O)c1cccc2cccc(Nc3ccccc3)c12,i

# Copied from the list:
# `CC(=O)Cn1nc([N+](=O)[O-])nc1Sc1ccc(C)cc1` in Mtb growth shows 4%
# `O=C(COc1cc(Cl)c(Cl)cc1Cl)Nc1ccc(F)c(Cl)c1` in Mtb growth shows 3%

# (continued)
SMILES,Mtb growth
CCc1ccc(CNC(=O)C(=O)Nc2cc(C)ccc2C)cc1,8%
NS(=O)(=O)c1ccc(CCNC(=S)NCc2ccco2)cc1,i
O=S(=O)(Nc1ccc(O)c2ccccc12)c1ccc(Cl)cc1,1%
O=C(NCc1ccco1)C(=O)NC1CCCC1,i
O=C1C2C(C(=O)N1Cc1ccco1)C1c3ccccc3C2C2C=CC=CC21 (stereo not drawn),1%
CC(C)CCNS(=O)(=O)c1ccc2c(c1)oc(=O)c1cc(S(=O)(=O)NCCC(C)C)ccc12,3%
Cc1ccc(NC(=O)C2CCCN2S(=O)(=O)c2ccc(F)cc2)c(C)c1 (stereo not drawn),i
O=S(=O)(c1cccs1)N1CCCCC1,i
COC(=O)C1CCCCN1S(=O)(=O)c1ccc(C)cc1 (stereo not drawn),2%
CN(C)CCCNc1nn2c(=O)c3c(-c4ccc(Cl)cc4)csc3nc2c2ccccc12,35µg/mL*
CCOC(=O)c1c(NC(=O)C(C)C)sc(CC)c1-c1ccccc1,6%
CCc1ccc(OCC(=O)Nc2ccc(N(CC)CC)cc2)c(Br)c1,38%
COCc1cc(=O)[nH]c(/N=C(\N)Nc2cccc(C)c2)n1,i
COC(=O)C1=CN(CC2CCCO2)C=C(C(=O)OC)C1c1ccc(OC)c(OC)c1 (stereo not drawn),6%
CCOC(=O)c1c(-c2ccc(OC)cc2)csc1NC(=O)C1CCCO1 (stereo not drawn),i
O=C1/C(=C\c2ccc3c(c2)OCO3)N=C(c2ccccc2)N1c1ccc(F)cc1,2%
CCCCNC(=O)NC1C(NC(=O)NCCCC)N(C)C(=O)N1C (stereo not drawn),i
CC(=O)Oc1ccc2c(=O)c(Oc3ccccc3C)c(C)oc2c1C,i
O=C(CC1(O)C(=O)N(CCc2ccccc2)c2ccccc21)c1cccs1 (stereo not drawn),i
CN1CCN(C(=O)c2cc(I)ccc2NC(=O)c2ccc(Cl)cc2Cl)CC1,i
CC(C)c1ccc(OCC(=O)NC2CCCC2)c(Br)c1,34%
CCOC(=O)COc1ccc(S(=O)(=O)Nc2cccc(SC)c2)cc1,3.7µg/mL*
COc1cccc(-c2nc(-c3ccccn3)no2)c1OC,i
COC(=O)Cc1c(C)c2ccc(OCC(=O)OCc3ccccc3)c(C)c2oc1=O,0.11µg/mL*
Cc1cc(Cl)ccc1N(CC(=O)Nc1ccccc1Cl)S(C)(=O)=O,12%
SMILES,Mtb growth
CC(O)c1nc2ccccc2n1Cc1ccccc1Cl (stereo not drawn),i
O=C(CCc1nc(-c2ccccc2F)no1)NC1CCCCC1,i
Cc1ccc(N(CC(=O)Nc2cccc(C(F)(F)F)c2)S(C)(=O)=O)cc1Cl,13%
COc1ccc(OC(=O)N(c2ccccc2)c2ccccc2)cc1,45%
CC(C)c1ccc(CN2CC(C(=O)Nc3ccccc3)CC2=O)cc1 (stereo not drawn),i
COCCCn1c(=S)[nH]c2ccccc2c1=O,i
CCN(CC)c1ccc(NC(=O)CSc2nnc(N)s2)cc1C,i
COC(C(=O)Nc1ccc(Cl)cc1C)c1ccccc1 (stereo not drawn),3%
Cc1cc(OCC(=O)NCc2ccccc2Cl)cc(C)c1Br,11%
CC(C)COc1cccc(C(=O)Nc2cc(Cl)ccc2C(F)(F)F)c1,i
Cc1cccc(C(=O)Nc2cccc(Cl)c2C)c1[N+](=O)[O-],i
CCOC(=O)C1=C(C)NC(=S)NC1c1ccc(OCC(=O)OC)c(Br)c1 (stereo not drawn),i
COc1ccc(Cl)cc1NC(=O)CN(C)S(=O)(=O)c1ccc2ccccc2c1,i
Cc1ccccc1NC(=O)CN(c1ccc(F)cc1)S(C)(=O)=O,i
Cc1cccc2nc(CNc3nc4ccccc4s3)cn12,1%
CCOc1ccc2cc(S(=O)(=O)N3CCCCCC3)ccc2c1,48%
CCS(=O)(=O)Nc1ccccc1C(N)=O,i
CS(=O)(=O)N(CC(=O)NC1CCCCC1)c1cccc(F)c1,i
O=[N+]([O-])c1ccc2c(c1)S(=O)(=O)N=C2Nc1ccccc1Cl,i
CC(=O)c1ccc(NC(=S)Nc2ccccc2Sc2ccccc2)cc1,1%
O=S(=O)(Cc1ccccc1)c1nc(C(F)(F)F)cc(C(F)(F)F)n1,i
C=CCn1c(SCC(=O)Nc2cc(C)ccc2OC)nc2ccccc2c1=O,0%
CCC(C)Cn1c(C(O)c2ccccc2)nc2ccccc21 (stereo not drawn),i
C=CCn1c(SCC(=O)Nc2c(C)cccc2CC)nnc1-c1cccc(OC)c1,1%
Cc1nc2nc[nH]n2c(=O)c1NS(=O)(=O)c1cccs1,i
SMILES,Mtb growth
Cc1cc(NC(=O)CSc2nnc(CC(=O)Nc3ccccc3)n2C)ccc1Br,i
Cc1cc(C(=O)Nc2ccc(S(=O)(=O)N3CCc4ccccc43)cc2)cs1,47%
O=C(OCc1ccccc1)C(=O)OCc1ccccc1,1%
Cc1ccc(SCCCCn2cnc3ccccc32)cc1,4%
O=C(Nc1sccc1C(=O)N1CCOCC1)c1cc2ccccc2oc1=O,u
COc1cccc(OC)c1C(=O)NC(=S)Nc1c(C)cccc1C,0%
CN(CC(=O)NCc1ccncc1)S(=O)(=O)c1ccc(Cl)cc1,i
Cc1n[nH]c(C)c1C(=O)CC1(O)C(=O)N(Cc2ccccc2)c2ccccc21 (stereo not drawn),i
CC(C)(C)c1cc(C(=S)N2CCN(CCO)CC2)cc(C(C)(C)C)c1O,i
COc1ccc(CCNC(=O)c2cccc(C(=O)NCCc3ccc(OC)cc3)c2)cc1,i
O=C(Nc1ccccc1)c1ccc(C(=O)Nc2ccccc2)nc1,0%
CC(C)c1ccc(/C=C(\C#N)S(=O)(=O)c2ccccc2)cc1,i
CC1CCN(CC(O)COCc2ccccc2)CC1 (stereo not drawn),i
CC(C)c1ccc(CC(NC(=O)c2ccccc2)C(=O)O)cc1 (stereo not drawn),i
O=C(c1cccc(F)c1)N1CCN(CCCc2ccccc2)CC1,i
NS(=O)(=O)c1ccc(NC(=S)Nc2nn(Cc3ccc(Cl)cc3Cl)cc2Cl)cc1,18%
C=CCc1cc(C)ccc1OCCCCNC(C)(C)C,i
O=C(O)c1ccc(NC(=O)c2cn(-c3ccccc3)nc2-c2cccc(Cl)c2)cc1,3%
O=C(Nc1ccc(S(=O)(=O)N2CCCCCC2)cc1)c1ccc(F)cc1,i
Cc1ccc(SCC(=O)Nc2ccc3c(c2)C(=O)NC3=O)cc1,i
CCOC(=O)C1CCN(C(=O)Cc2cccc3ccccc23)CC1,i
Nn1c(SCCC(=O)O)nnc1-c1ccccc1,i
CCNC(=O)CN(C)S(=O)(=O)c1cc(Cl)ccc1Cl,i
c1ccc(CC2CCN(Cc3nc(-c4ccccc4)no3)CC2)cc1,1%
O=C(COc1ccc2ccccc2c1)Nc1ccc(Cl)cn1,1%

# Sorted by formula weight (rising): some entries from above
SMILES,Mtb growth
O=C(Nc1ccccc1)c1ccc(C(=O)Nc2ccccc2)nc1,0%
CCNC(=O)CN(C)S(=O)(=O)c1cc(Cl)ccc1Cl,i
O=C(O)c1ccc(NC(=O)c2cn(-c3ccccc3)nc2-c2cccc(Cl)c2)cc1,3%

# Next structures follow.
SMILES,Mtb growth
Fc1cccc(Cl)c1CSCc1nc2ccccc2[nH]1,i
c1ccc2c(OCCn3nc4ccccc4n3)cccc2c1,i
COc1cc(Br)ccc1OCC(=O)N=Nc1c(O)[nH]c2c(C)cccc12,9%
CC(C)c1ccc(OC(=O)c2ccc(Cl)cc2)cc1,2%
Cc1cccc(OCC(=O)O/N=C(\N)Cc2ccc(Cl)cc2Cl)c1C,i
CCC(Oc1ccc2c(-c3ccccc3)cc(=O)oc2c1)C(=O)OCc1ccccc1 (stereo not drawn),3.8µg/mL*
CCC(O)c1ccc(OCc2ccccc2)c(OC)c1 (stereo not drawn),5%
Cc1c(C)c2c(O)cc(O)cc2oc1=O,i
CCCCC(=O)Nc1cccc(NC(=S)NC(=O)c2cc(Br)ccc2OC)c1,i
N#Cc1ccccc1NC(=O)c1ccc(-c2cccc([N+](=O)[O-])c2)o1,i
O=C(NCc1ccncc1)C(=O)NCC(c1ccccc1)c1ccccc1,i
O=C(Cc1ccc(-c2ccccc2)cc1)N(c1ccccc1)c1ccccc1,5%
CC(=O)Nc1ccc(S(=O)(=O)N2CCN(C(=O)N3CCCC3)CC2)cc1,i
Clc1ccc(SCCOCCN2CCOCC2)cc1,i
CC(C)(C)NC1CC(=O)N(c2ccc3c(c2)OCO3)C1=O (stereo not drawn),i
CCCc1cc(=O)oc2cc(OC(=O)c3cccs3)ccc12,38%
CC(NC(=O)C1CCN(C(=O)c2ccc([N+](=O)[O-])cc2)CC1)c1ccccc1 (stereo not drawn),i
Cc1ccc(S(=O)(=O)N2CCN(S(=O)(=O)N(C)C)CC2)cc1,i
O=C(Cn1cnc([N+](=O)[O-])n1)Nc1ccc(Cl)cc1C(F)(F)F,i
O=C(CN(Cc1ccc(Cl)cc1)S(=O)(=O)c1ccc(Cl)cc1)NC1CCCC1,i
Cn1c(COc2ccccc2Cl)nnc1SCC(=O)N(C1CCCCC1)C1CCCCC1,4%
CC(Oc1ccc(Br)cc1)C(=O)NC1CCCCCCC1 (stereo not drawn),i
C=CCn1c(SCC(=O)Nc2c(F)cc(F)cc2Br)nnc1-c1cccc(C)c1,i
COc1ccc(S(=O)(=O)NCc2ccc(Cl)cc2)cc1Br,10%
COC(=O)c1cc(NC(=O)C2CCCCC2C(=O)O)cc(C(=O)OC)c1 (stereo not drawn),i
SMILES,Mtb growth
c1ccc(Nc2ncnc3nc[nH]c23)cc1,3%
Cc1cc(=O)oc2cc(OCCSc3ccc([N+](=O)[O-])cc3)ccc12,i
CC(NC(=O)NCc1ccc(F)cc1)(C(F)(F)F)C(F)(F)F,i
CC(C)Oc1ccc(N2CC(C(=O)Nc3ccc4c(c3)OCO4)CC2=O)cc1 (stereo not drawn),i
Cc1ccc(C2c3c(oc4ccccc4c3=O)C(=O)N2c2nccs2)cc1 (stereo not drawn),8%
Cc1ccc(S(=O)(=O)c2ccc(C)cc2)cc1,i
O=S(=O)(Nc1ccc(S(=O)(=O)Nc2ccccc2Cl)cc1)c1ccc2c(c1)OCCO2,i
COc1cc([N+](=O)[O-])ccc1NC(=S)N1CCN(c2ccc(Cl)c(Cl)c2)CC1,i
O=C(CSCCO)Nc1cccc([N+](=O)[O-])c1,i
NC(=O)C1(N2CCCCC2)CCN(C2CC(=O)N(c3ccc(Cl)c(C(F)(F)F)c3)C2=O)CC1 (stereo not drawn),i
O=C(CSc1nc2ccccc2c(=O)n1CCc1ccccc1)N1CCCc2ccccc21,i

# Shown as labelled records: part of the list above.
Cc1cc(=O)oc2cc(OCCSc3ccc([N+](=O)[O-])cc3)ccc12
  Mtb growth: i

CC(NC(=O)NCc1ccc(F)cc1)(C(F)(F)F)C(F)(F)F
  Mtb growth: i

CC(C)Oc1ccc(N2CC(C(=O)Nc3ccc4c(c3)OCO4)CC2=O)cc1 (stereo not drawn)
  Mtb growth: i

Cc1ccc(C2c3c(oc4ccccc4c3=O)C(=O)N2c2nccs2)cc1 (stereo not drawn)
  Mtb growth: 8%
